Menin MLL FP FL: menin-MLL binding inhibition, fluorescein peptide; Fluorescence polarization, fluorescein-MLL peptide displacement from menin; FP activity change, % at 61.4 µM; 290,000 tested, under 10 active; AID 1766; inconclusive = falling polarisation curve, or a change in total fluorescence; inactive = total fluorescence flat and polarisation flat or rising; no compound was filed as active; the % refers to the polarisation; negative = inhibition;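 note: % of control where 0% means no effect; inhibitors lower the polarisation; unlabelled MLL peptide was the positive control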
TRPML1 agonist: human mucolipin-1 channel agonism; TRPML1-expressing cells, Ca2+ dye fluorescence, FDSS; host cell line not named in the record; reference of the full effect not given here; activation, % (no concentration beside the values); 0.12% of 410,000 active; AID 624414; in the data active = activation above about 50%; inconclusive = about 30% to 50%; inactive = below about 30%; note: 0% is about no effect; the text of the record puts the active cut at 80%
Target sequence (Q9GZU1 whole entry, looked up): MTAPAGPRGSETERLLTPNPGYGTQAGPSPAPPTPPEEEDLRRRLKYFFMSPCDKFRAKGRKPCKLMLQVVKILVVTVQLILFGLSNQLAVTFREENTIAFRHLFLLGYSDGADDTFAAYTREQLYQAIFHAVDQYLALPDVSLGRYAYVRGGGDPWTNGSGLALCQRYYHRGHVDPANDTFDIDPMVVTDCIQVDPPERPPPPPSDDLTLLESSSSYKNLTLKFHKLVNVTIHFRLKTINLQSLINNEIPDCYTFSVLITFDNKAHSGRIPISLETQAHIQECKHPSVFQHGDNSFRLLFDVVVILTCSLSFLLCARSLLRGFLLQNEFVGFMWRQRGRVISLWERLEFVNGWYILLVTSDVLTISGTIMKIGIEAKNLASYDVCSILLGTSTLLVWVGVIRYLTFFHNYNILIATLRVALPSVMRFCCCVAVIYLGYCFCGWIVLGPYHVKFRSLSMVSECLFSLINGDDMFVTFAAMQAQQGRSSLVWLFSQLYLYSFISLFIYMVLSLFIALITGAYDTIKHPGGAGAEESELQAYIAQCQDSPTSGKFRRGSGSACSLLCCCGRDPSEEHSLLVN
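Calcium fluorescence on an FDSS kinetic reader gave the read-out. Tet-induced TRPML1-DL cells were plated overnight, dye-loaded (Ca8 with quencher, 45-90 min, room temperature, dark), then read 110 s after compound addition, and again 110 s after 4uM final 54-4 (EC80).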
ClpP mod: qHTS Assay for Activators of ClpP; purified B. subtilis ClpP, FRET peptide cleavage, 20 min; 1.9% of 340,000 active; Potency, µM (top dose mostly 57.5 µM), inactives show top-dose activity change, negative = active; AID 651965, 2013; ATP-dependent Clp protease proteolytic subunit (Bacillus subtilis (strain 168)), P80244; active = well fitted falling curve with a large enough effect; inconclusive = small, poorly fitted or top-dose-only effect; inactive = no such curve, though single readings can be large or run the other way; note: potency is the fitted concentration of half-maximal effect; the source files actives as falling curves though it sought activators and does not explain the sign; nearly all actives have a fitted effect of over 65% in size; many hits overshoot -100%
Target sequence (P80244 whole entry, looked up): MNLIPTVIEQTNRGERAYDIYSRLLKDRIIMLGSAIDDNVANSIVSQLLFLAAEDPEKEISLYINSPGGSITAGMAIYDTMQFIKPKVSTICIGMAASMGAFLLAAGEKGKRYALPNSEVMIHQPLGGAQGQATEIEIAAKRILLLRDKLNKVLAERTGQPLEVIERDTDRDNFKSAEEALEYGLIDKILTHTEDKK
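ClpP 10 microg/mL final, pH 8 Tris/KCl buffer with BSA, glycerol, Tween-20; compound pinned in; FRET-FV substrate; RT 20 min; Ex320/Em430; ΔFRET vs ADEP 5.8 microM, DMSO, no enzyme.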
TRPML1 blocker: blocks the human TRPML1 channel. AID 624415. TRPML1-inducible cells, Ca2+ dye fluorescence, FDSS; active compounds read low; inhibition of EC80 agonist-evoked calcium signal. activity change, negative = inhibition, % (test concentration not listed). 0.02% of 390,000 active; in the data active means activity change below about -50%; inconclusive means about -30% to -50%; inactive means above about -30%;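 note: stimulus is agonist 54-4 at its EC80 concentration; % is set by controls: 0 for no effect and ±100 for the full control effect; compound concentration not given in the record; the text of the record puts the active cut at -80%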
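Tet-induced TRPML1-DL cells loaded with Ca8 no-wash calcium dye were read kinetically on FDSS. Compound addition was followed by EC80 agonist 54-4 (4 uM final); inhibition was read over 110 s.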
gsp ag: agonists of gsp mutant (McCune-Albright syndrome) | gsp mutant cells, cAMP HTRF, 30 min; control for the full effect not named in the record | Potency, µM (top dose mostly 76.9 µM), for inactives: at the highest dose activation (cAMP increase), actives largely listed as activators | 0.13% of 340,000 active | AID 624287; active = well fitted activation curve with a large enough effect; inconclusive = small, poorly fitted or top-dose-only effect, or another doubt; inactive = no such curve, though single readings can be large or run the other way; cell line not stated here;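 note: phosphodiesterase inhibitor Ro 20-1724 added with compounds to block cAMP breakdown; potency is the fitted concentration of half-maximal effect; nearly all actives have a fitted effect of over 60% in size; about a fifth of the inactives were tested at one dose only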
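Cells stably selected in G418 were plated at 2000/well, grown 16-24 hr, then given compounds in DMSO with the PDE inhibitor […] (300 uM solution added) for 30 min at 37C; cAMP was read by HTRF.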
gsp antag: antagonists of gsp mutant (McCune-Albright syndrome); 0.4% of 340,000 active; gsp-mutant cells, cAMP HTRF, 30 min; control for the full effect not named in the record; Potency, µM (titrated, usually from 76.9 µM), without a hit: at the top dose activity change, negative = inhibition, usual class: inhibitors; active = falling curve of any shape with a large fitted effect; inconclusive = falling curve, mostly with a smaller effect; inactive = flat or rising curve; cell line not stated here;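 note: intracellular cAMP measured with PDE inhibitor Ro 20-1724 present during compound exposure; potency is the fitted concentration of half-maximal effect; % is set by controls: 0 for no effect and ±100 for the full control effect; nearly all actives have a fitted effect of over 65% in size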
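Cells in G418 medium, seeded 16-24 h, 37C; buffer exchange to DPBS + 1 mM CaCl2, 0.5 mM MgCl2, 0.05% BSA; cpds in DMSO + […] (300 uM stock), 30 min 37C; HTRF cAMP detection.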
* hit, by the source's call; ? = inconclusive; nt = not tested or not shown; [ ] = another dose, or the depositor's remark.

SMILES	gsp antag	Menin MLL FP FL	TRPML1 agonist	gsp ag	TRPML1 blocker	ClpP mod
COC(=O)c1ccc(NC(=S)NC2CCCCC2C)cc1 (stereo unspecified)	-11.4%	1.3	0.7	?	15.5	5.4%
O=C(COC(=O)Cc1ccccc1F)NCc1ccccc1Cl	nt	nt	-0.6	-21.8%	8.7	-1.6%
COc1ccc(/C=C/C(=O)Nc2cc(C)nn2-c2nc3ccccc3n2Cc2cccc([N+](=O)[O-])c2)cc1	16.6%	10.4	2.7	-3.4%	28.5	0.3%
Cc1ccsc1C(=O)NNC(=S)NCC(C)C	0.3%	3.2	-0.5	?	-13.0	18.9%
COc1ccc(NC(=O)CN2c3cccc4cccc(c34)S2(=O)=O)c(OC)c1	5.2%	3.4	0.6	-45.9%[inhibitor]	2.9	-4.2%
CCCN(CCC)CCCNC(=O)c1cc2c(=O)[nH]c3ccccc3c2s1	16.4%	nt	-0.6	2.9%	50.5	nt
CCc1ccc(C(=O)NC(CCSC)C(=O)O)cc1 (stereo unspecified)	-12.0%	-0.5	-0.3	8.5%	-3.3	-0.8%
O=C(Nc1nccs1)c1cc(Cl)nc2ccccc12	-13.6%	4.1	-0.4	-8.4%[15.4 µM]	7.6	-2.5%
CC(=O)c1cc(-c2ccc(F)cc2)n(CC(=O)NCc2cccs2)c1C	4.7%	3.7	2.1	1.2%	12.6	-1.4%
Cc1ccc(/C=C/C(=O)OCc2nc(N)nc(Nc3ccccc3C)n2)o1	3.7%	-3.0	5.0	-42.0%[inhibitor]	13.5	-1.6%
CCCCCn1c(CNC(=O)c2cccs2)nc2ccccc21	-5.5%	-0.2	-0.4	?	-8.1	-2.9%
O=C(N/N=C/c1ccc(-c2cccc(C(F)(F)F)c2)o1)c1ccccc1Br	-6.9%	?	4.7	-44.7%[inhibitor]	28.8	-11.0%
Cc1ccc(C(=O)NNC(=O)C2CCN(c3nccc(C)n3)CC2)cc1	2.5%	1.1	0.1	-21.3%	-7.3	-21.9%
COc1ccc(C2C=C(c3ccccc3)Nc3nc(NC(=O)/C=C/c4ccccc4OC)nn32)cc1 (stereo unspecified)	nt	nt	1.8	nt	-6.9	-17.8%
CN(CC(=O)NCCCN1CCOCC1)S(=O)(=O)c1ccc(Br)cc1	4.4%	5.2	0.1	3.3%	-17.5	-2.8%
C=CCN(C(=O)c1csnn1)C(C(=O)NC1CCCC1)c1c(F)cccc1Cl (stereo unspecified)	6.3%	-4.6	-0.3	-3.5%[15.4 µM]	-6.7	nt
CCOc1ccc(S(=O)(=O)NC2CCCC2)cc1C	9.1%	2.9	0.0	-26.3%	15.0	-2.3%
COc1ccccc1N1CCN(C2CCCN(C(=O)c3cscn3)C2)CC1 (stereo unspecified)	8.7%	8.0	-0.1	37.7%	-4.6	-0.1%
COc1ccccc1N1CCN(C(=O)c2cn(C)c3ccc(S(=O)(=O)N(C)C4CCCCC4)cc3c2=O)CC1	nt	nt	-0.5	nt	13.5	0.0%
O=C(Cc1cccs1)N/N=C/c1ccc(OCc2ccccc2)cc1	?	4.7	2.6	17.8%[15.4 µM]	41.7	0.1%
CCOC(=O)C1(Cc2cccc(F)c2)CCN(C(=O)C2CCOCC2)CC1	-1.5%	-0.5	-0.6	-2.2%[15.4 µM]	-0.8	nt
O=C(/C=C/c1ccc(S(=O)(=O)N2CCOCC2)cc1)NCCCn1ccnc1	-14.0%	-5.7	-0.2	-4.1%	-1.8	1.3%
N#C/C(=C\c1cccnc1)C(=O)Nc1ccc(S(N)(=O)=O)cc1	-5.0%	5.8	-0.3	9.3%	-8.4	-1.0%
CC(=O)n1c2ccccc2c2c1c1ccccc1n2C	-13.8%	-0.6	0.2	-27.7%	13.5	?
CN(C)C(=O)CCc1ccc2c3c([nH]c2c1)[C@]1(CCc2ccccc2)[C@@H](C(=O)N2CCCCC2)C[C@H](CC(=O)NCc2ccco2)C(=O)N1CC3	-2.7%	nt	-0.6	nt	11.5	1.4%
Cn1cc(S(=O)(=O)c2cccc(Cl)c2)c(=O)c2cc(F)c(N3CCN(c4ccccc4)CC3)cc21	nt	nt	2.2	nt	-3.9	?
Cc1cccc(NC2=C(Cl)C(=O)OC2NC(=O)c2ccccc2)c1 (stereo unspecified)	6.6%	-1.4	0.5	-13.6%	-6.7	-0.3%
CC(=O)C(Cc1ccccc1)NC(=O)COC(=O)c1cccc(C)c1[N+](=O)[O-] (stereo unspecified)	2.4%	nt	2.1	?	12.0	-0.9%
O=C(Nc1ccc(N2CCOCC2)cc1)c1cccnc1	7.0%	4.0	0.2	15.5%	9.4	-1.5%
CCS(=O)(=O)c1nc(NC(C)=O)n[nH]1	7.1%	2.1	-0.6	8.8%	11.2	-1.6%

Next entries follow.
SMILES	gsp antag	Menin MLL FP FL	TRPML1 agonist	gsp ag	TRPML1 blocker	ClpP mod
COC(=O)c1cc2oc3ccccc3c2n1Cc1nc(-c2ccc(Cl)cc2)oc1C	nt	nt	-1.5	nt	5.2	-14.0%
COc1ccc(-c2cc(C(=O)NC3CC3)c3ccccc3n2)cc1	1.8%	nt	3.8	0.0%	-5.0	4.4%
CC(NS(=O)(=O)c1cc2c3c(c1)CCN3C(=O)CC2)c1ccccc1 (stereo unspecified)	nt	nt	0.2	3.5%	-7.2	-0.9%
CCCCCCCCCCCn1nnnc1N	0.3%	nt	0.6	6.6%[15.4 µM]	-5.2	0.4%
Cc1noc(C)c1COc1ccccc1C(=O)N1CCN(c2cccc(C(F)(F)F)c2)CC1	-22.2%	nt	1.5	2.8%	24.1	1.0%
c1ccc2c(c1)ccc1nnc(-c3ccc4c(c3)OCO4)n12	14.0%	7.0	-1.0	-11.6%	5.7	?
COc1ccc(N2C(=NC(=O)C3CCCO3)SC3CS(=O)(=O)CC32)cc1 (stereo unspecified)	4.7%	nt	-0.8	?	9.3	nt
O=S(=O)(c1ccccc1)N1CCSC1c1ccco1 (stereo unspecified)	3.9%	2.0	0.2	-13.8%	1.8	-0.5%
COCCC(=O)N1CCC(n2nccc2NC(=O)c2ccccc2C)CC1	10.4%	-0.6	-0.2	0.5%	?	-2.2%
Cc1ccc(NC(=O)CN2C=NS(=O)(=O)c3ccccc32)c(C)c1	nt	nt	-0.9	nt	1.2	1.1%
CN(C)S(=O)(=O)c1ccc2c(c1)C(CC(=O)O)NC2=O (stereo unspecified)	1.6%	3.1	-0.4	-20.6%	0.7	-0.3%
Cc1ccc(S(=O)(=O)NCC(=O)N2CCOCCOCCOCCOCC2)cc1	0.3%	0.2	1.5	-17.4%	11.3	-0.8%
Cc1ccccc1N1CC(c2nc3ccccc3n2CCC2CCCCC2)CC1=O (stereo unspecified)	nt	nt	1.6	nt	57.6	-0.2%
Cc1cc(Cl)ccc1NC(=S)NCCCO	0.0%	8.7	-0.6	27.7%	-14.7	1.9%
O=C(CCC(=O)N1CCN(S(=O)(=O)c2ccc(Cl)cc2)CC1)Nc1ccc(Cl)cc1Cl	-4.5%	1.0	0.8	-6.2%	3.8	1.7%
CC(=NCc1cccnc1)C1=C(O)c2ccccc2C1=O	11.3%	1.0	-0.7	4.4%	21.0	-1.0%
COc1ccc(NC(=O)CCN2C(=O)c3ccc([N+](=O)[O-])cc3C2=O)c(OC)c1	6.1%	0.8	0.1	-6.1%[15.4 µM]	3.0	0.6%
COc1ccc(-c2cc(C(=O)NCC3CCCO3)c3cc(C(C)C)ccc3n2)cc1 (stereo unspecified)	?	-1.1	1.4	-26.0%	59.4	3.3%
O=C(OCc1nnc(-c2ccccc2)o1)c1cc(S(=O)(=O)N2CCOCC2)ccc1F	-7.5%	nt	-0.9	3.5%	-18.2	-0.9%
COc1ccc(C2CC(c3c(-c4ccccc4)c4cc(Cl)ccc4[nH]c3=O)=NN2S(C)(=O)=O)cc1 (stereo unspecified)	-23.2%	0.4	0.1	15.4%	-8.1	-10.7%
Cn1c(-c2csc(-c3cccc(C(F)(F)F)c3)n2)n[nH]c1=S	-20.5%	0.1	1.1	17.3%[15.4 µM]	35.9	0.6%
CCN(Cc1ccccc1)C(=O)C1CCN(Cc2sccc2C)CC1	9.1%	3.0	0.3	-32.0%[inhibitor]	-25.7	-1.9%
O=C(O)CC(c1ccccc1)N1C(=O)c2ccccc2C1=O (stereo unspecified)	-2.5%	nt	0.9	13.4%	9.1	1.9%
O=C(c1cc(-c2ccc(Br)cc2)nc2ccccc12)N1CCN(c2ccccc2O)CC1	-7.7%	nt	1.7	-4.2%[15.4 µM]	15.4	nt
O=C(O)c1[nH]c2ccccc2c1-c1ccccc1	-10.2%	2.2	0.5	15.2%[15.4 µM]	15.5	-1.8%
CCOC(=O)c1[nH]c(C)c(C(=O)NCCc2ccc(OC)cc2)c1C	-9.9%	-2.1	1.6	?	-7.0	-0.9%
O=C(Nc1ccc(NC(=S)NC(=O)c2ccco2)cc1)c1ccc(Br)cc1	nt	nt	0.0	-10.5%	-23.4	0.9%
CCN1C(=O)C(Cc2nc3ccccc3c(=O)n2-c2ccccc2)c2cc(Br)ccc21 (stereo unspecified)	nt	nt	1.7	nt	-16.7	-5.5%
Cc1cc(C)nc(NS(=O)(=O)c2ccc(NC(=O)CCC(=O)O)cc2)n1	19.0%	nt	-0.2	-4.2%[15.4 µM]	12.5	0.6%
O=C(Cn1cncn1)NCCC(c1ccccc1)c1ccccc1	-0.9%	2.6	-0.5	-14.9%	9.1	0.0%

(listing goes on)
SMILES	gsp antag	Menin MLL FP FL	TRPML1 agonist	gsp ag	TRPML1 blocker	ClpP mod
O=S(=O)(Nc1nc(-c2ccco2)c(-c2ccco2)s1)c1ccc(F)cc1F	nt	nt	-0.8	-1.3%	-11.6	-4.5%
COc1ccccc1-c1nc(-c2ccccn2)no1	4.1%	-1.3	-1.3	0.9%	0.7	-18.8%
COc1ccc2c(c1)c(=O)oc1cc(OCC(=O)NC3CCCCC3)ccc12	7.8%	-2.7	0.3	?	3.6	8.91µM*
CC1C(=O)N(c2ccc(S(=O)(=O)N(C)C)cc2)C1(/C=C/c1ccccc1)C(=O)NC1CCCC1 (stereo unspecified)	6.7%	5.9	-0.2	-80.9%[inhibitor]	8.1	-0.7%
CCCNC(=O)COC(=O)CCC(=O)c1ccc(F)cc1	10.6%	-1.0	0.6	-25.8%	34.9	-3.7%
Cc1cccc(NC(=O)CCCn2cc([N+](=O)[O-])cn2)n1	2.4%	-2.2	0.0	-0.2%	-7.9	0.1%
OC(c1cccc(Cl)c1)c1ncc(-c2ccc3ccccc3c2)[nH]1 (stereo unspecified)	nt	nt	0.1	nt	0.8	4.5%
CCC(c1nnnn1CCc1ccccc1)N(Cc1ccco1)Cc1cc2cccc(C)c2[nH]c1=O (stereo unspecified)	-8.2%	-0.1	1.8	-16.0%	-14.1	-27.1%
CCOC(=O)[C@@H]1[C@H]2COc3ccccc3[C@H]2N2C(=O)N(c3cccc(Cl)c3)C(=O)[C@]12C	-11.0%	nt	-0.2	-5.6%	29.7	0.8%
COc1ccc(-n2cc(CNC3CCN(C)CC3)c(-c3cccc(F)c3)n2)cc1	9.5%	-4.9	0.1	?	3.4	nt
